A1 inhib: inducers of caspase activity in MEF A1-2A-BIM cells, primary screen, A1 inhibitor project, cell-based, CaspaseGlo luminescence | caspase-Glo luminescence, 3 h; percent of clofoctol signal, DMSO as zero | caspase activation, % (no concentration beside the values) | hit rate 0.51% among 21,000;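 active = most replicate scores above 10, or exactly half above 10 with mean activity above 10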;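 note: effector caspase 3 and 7 activity cleaving a DEVD luciferin substrate; 50 nL library stock added to about 30 µL; numbers are from one replicate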
BJeLR viability: BJeLR cell viability loss, primary screen, luminescence, CellTiterGlo ATP; BJeLR fibroblasts viability, 48 h; HRASV12, hTERT and SV40 LT/ST transformed; viability loss activity score, % (concentration not given with the values); hit rate 0.64% among 30,000; AID 2275, 2010; in the data active = viability loss activity score above about 50%; about a fifth of its hits are not listed in these tables;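 note: higher score means fewer live cells and less ATP luminescence; stock transfer was 50 or 100 nL into about 30 µL; 0% = vehicle wells and 100% = a reference killing control; one replicate is shown; the record names a cut of 85%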
* marks the source's active call; other numbers are inactive results; / = no result given. An excerpt, so the mix of outcomes need not match the whole.

SMILES	A1 inhib	BJeLR viability
COc1ccc(-c2csc3ncc(S(=O)(=O)c4ccc(F)c(Cl)c4)c(=O)n23)cc1OC	/	-1.3
COC(=O)C1=C(O)/C(=C/c2ccccc2OC)N=C1C	/	0.1
C[C@H](CO)N1C[C@H](C)[C@@H](CN(C)CC2CCCCC2)Oc2c(NC(=O)Nc3ccccc3)cccc2C1=O	/	0.0
C[C@@H]1CN([C@H](C)CO)C(=O)c2cccc(NC(=O)C3CCCCC3)c2O[C@H]1CN(C)Cc1ccc(Oc2ccccc2)cc1	/	1.6
C[C@H](CO)N1C[C@H](C)[C@@H](CN(C)C(=O)Nc2ccc3c(c2)OCO3)Oc2ccc(NS(=O)(=O)c3ccc(Cl)cc3)cc2C1=O	-0.5	4.2
NC(=O)c1ccc(N2CCN(C(c3ccccc3)c3ccccc3)CC2)nc1	0.5	4.1
CSc1nc(N/C=C(\C#N)S(=O)(=O)c2ccccc2Cl)nc(C2CC2)n1	-0.2	14.2
C[C@H]1CN([C@@H](C)CO)C(=O)c2cccc(NC(=O)C3CC3)c2O[C@H]1CN(C)C(=O)Nc1ccccc1	/	-5.0
COC(=O)c1c(C(=O)OC)c2n(c1C)CSC2	0.1	1.8
COc1ccc(NC(=O)N(C)C[C@@H]2Oc3ccc(NC(=O)NC4CCCCC4)cc3C(=O)N([C@H](C)CO)C[C@@H]2C)cc1	0.1	0.4

Some values from the results shown.
BJeLR viability with `C[C@H](CO)N1C[C@H](C)[C@@H](CN(C)CC2CCCCC2)Oc2c(NC(=O)Nc3ccccc3)cccc2C1=O` stands at 0.0
BJeLR viability with `COC(=O)C1=C(O)/C(=C/c2ccccc2OC)N=C1C` stands at 0.1
A1 inhib with `COc1ccc(NC(=O)N(C)C[C@@H]2Oc3ccc(NC(=O)NC4CCCCC4)cc3C(=O)N([C@H](C)CO)C[C@@H]2C)cc1` stands at 0.1
BJeLR viability with `COc1ccc(-c2csc3ncc(S(=O)(=O)c4ccc(F)c(Cl)c4)c(=O)n23)cc1OC` stands at -1.3
A1 inhib with `COC(=O)c1c(C(=O)OC)c2n(c1C)CSC2` stands at 0.1

Additional results.
SMILES	A1 inhib	BJeLR viability
COc1ccc(CN(C)C[C@@H]2Oc3ccc(NS(=O)(=O)c4ccc(OC)cc4)cc3C(=O)N([C@@H](C)CO)C[C@H]2C)cc1	-0.6	-3.2
C[C@@H]1CN([C@H](C)CO)C(=O)c2cccc(NS(=O)(=O)c3ccccc3)c2O[C@@H]1CN(C)S(=O)(=O)c1ccccc1	/	-7.5
CC(C)(C)NC(=S)NC1CC1	-0.5	-4.3
COC(=O)c1cc(O)cc(OC)c1Oc1c(Cl)c(C)c(Cl)c(O)c1C(=O)O	0.5	2.3
CC(C)NC(=O)Nc1ccc2c(c1)C(=O)N([C@H](C)CO)C[C@@H](C)[C@H](CN(C)S(C)(=O)=O)O2	0.6	2.6
OC(CSc1cccc2cccnc12)Cn1c2ccccc2c2ccccc21 (stereo unspecified)	/	2.5
C[C@H]1CN([C@@H](C)CO)C(=O)c2cccc(NS(=O)(=O)c3ccc(F)cc3)c2O[C@H]1CN(C)Cc1ccc(-c2ccccc2)cc1	/	-2.4
Cc1cc(C(=O)Nc2cccc3c2O[C@H](CN(C)Cc2ccc(Cl)c(Cl)c2)[C@H](C)CN([C@H](C)CO)C3=O)n(C)n1	/	5.1
Cc1noc(C)c1S(=O)(=O)N(C)C[C@H]1Oc2c(NS(=O)(=O)c3cn(C)cn3)cccc2C(=O)N([C@@H](C)CO)C[C@@H]1C	/	5.7
CN(C1CCCCC1)S(=O)(=O)c1cc(Br)cc2c1N(C(=O)C1CC1)CC2	/	-4.3
COc1ccc(NC(=O)Nc2ccc3c(c2)C(=O)N([C@H](C)CO)C[C@@H](C)[C@@H](CN(C)Cc2ccc4c(c2)OCO4)O3)cc1	-0.2	2.6
C[C@H]1CN([C@@H](C)CO)C(=O)c2cc(NS(=O)(=O)c3ccccc3)ccc2O[C@H]1CN(C)Cc1ccccc1	0.0	-1.4
C[C@H]1CN([C@@H](C)CO)C(=O)c2cc(NS(=O)(=O)c3ccc(F)cc3)ccc2O[C@H]1CN(C)C(=O)Nc1ccc(C(F)(F)F)cc1	-0.6	0.6
COC(=O)Cn1c(CCS(=O)(=O)c2ccc(Cl)cc2)nc2ccccc21	1.0	5.1
Cc1nnc(N2C(=N)S/C(=C\c3ccccc3Cl)C2=O)s1	-2.8	-7.3
Cc1ccc(SCCC(=O)Nc2c(C)n(C)n(-c3ccccc3)c2=O)cc1	/	-4.4
CCOC(=O)c1ccc(NC(=O)CCC(C)C(=O)O)cc1 (stereo unspecified)	0.4	0.9
CC(C)NC(=O)Nc1cccc2c1O[C@@H](CN(C)C(=O)NC(C)C)[C@H](C)CN([C@H](C)CO)C2=O	/	-6.0
C[C@H]1CN([C@@H](C)CO)C(=O)c2cccc(NS(=O)(=O)c3ccc(F)cc3)c2O[C@@H]1CN(C)C(=O)Nc1cccc2ccccc12	/	-3.0
C/C(=C\CC[C@@H](C)[C@H]1CC(O)[C@@]2(C)C3CC[C@H]4C(C)(C)[C@@H](O[C@@H]5OC(CO)C(O)C(O)C5OC5OC(CO)C(O)C(O)C5O)CC[C@@]45C[C@@]35CC(O)[C@]12C)C(=O)O (stereo partly specified)	0.2	-6.1
C[C@@H]1CN([C@H](C)CO)C(=O)c2cc(NC(=O)CCC(F)(F)F)ccc2O[C@@H]1CN(C)Cc1ccc(Cl)c(Cl)c1	-0.1	-6.5
C[C@H]1CN([C@@H](C)CO)C(=O)c2cccc(NC(=O)C3CC3)c2O[C@H]1CN(C)S(C)(=O)=O	/	-4.3
O=C(CSc1nc2ccccc2c(=O)n1CCc1ccccc1)NCCc1ccccc1	-0.8	1.2
CC(C)NC(=O)N(C)C[C@@H]1Oc2ccc(NS(=O)(=O)c3ccc(Cl)cc3)cc2C(=O)N([C@@H](C)CO)C[C@@H]1C	0.1	-1.6
Cc1cc(NC2c3ncccc3C(=O)N2C2CCCCC2)ccc1Br (stereo unspecified)	/	1.8
CC(C)NC(=O)N(C)C[C@@H]1Oc2c(NC(=O)C3CCOCC3)cccc2C(=O)N([C@H](C)CO)C[C@@H]1C	/	-1.8
Cc1noc(C)c1NC(=O)Nc1ccc2c(c1)C(=O)N([C@@H](C)CO)C[C@@H](C)[C@@H](CN(C)S(=O)(=O)c1cn(C)cn1)O2	-0.3	0.3
C[C@@H]1CCC[C@H](C)N1NC(=O)c1ccc(Cl)c(S(N)(=O)=O)c1	0.5	-3.8
Cc1cc(-c2nn(C)c(=O)c3ccccc23)cc(C)c1OCC(=O)NN	0.6	-0.1
O=c1c(O[C@@H]2O[C@H](CO)[C@H](O)[C@H](O)[C@H]2O)c(-c2ccc(O)c(O)c2)oc2cc(O)cc(O)c12	-0.1	-9.1
O=C(CCCOc1ccc(Cl)cc1Cl)Nc1nccs1	-0.2	2.5
C[C@H]1CN([C@@H](C)CO)C(=O)c2cccc(NS(=O)(=O)c3ccccc3)c2O[C@@H]1CN(C)S(=O)(=O)c1ccc(Cl)cc1	/	-4.6
CC(C)NC(=O)N(C)C[C@@H]1Oc2c(NC(=O)Nc3ccccc3)cccc2C(=O)N([C@H](C)CO)C[C@H]1C	/	-2.7
COc1ccc(CN(C)C[C@H]2Oc3c(NC(=O)c4ccc(-c5nccs5)cc4)cccc3C(=O)N([C@H](C)CO)C[C@@H]2C)cc1	/	-8.9
NCc1cn[nH]c1-c1ccccc1	0.7	0.8
C[C@H](CO)N1C[C@H](C)[C@H](CN(C)S(=O)(=O)c2ccc(Cl)cc2)Oc2ccc(N(C)C)cc2C1=O	-0.4	-4.3
COc1ccc(OCC(=O)N2c3ccccc3Sc3ccccc32)cc1	-0.3	1.4
CC(CCc1ccccc1)NC(=O)c1n[nH]c2c1CCCC2 (stereo unspecified)	0.4	4.1
CCc1ccc(Sc2cc(C(=O)NCC3CCCO3)c3ccccc3n2)cc1 (stereo unspecified)	-0.4	-0.6
COc1ccc2ccc(=O)oc2c1CC(O)C(C)(C)OC (stereo unspecified)	-0.3	-5.1
C[C@@H]1CN([C@H](C)CO)C(=O)c2cc(NC(=O)C3CC3)ccc2O[C@H]1CN(C)C(=O)Nc1ccc(C(F)(F)F)cc1	0.1	-1.1
C[C@H](CO)N1C[C@H](C)[C@H](CN(C)C(=O)Nc2ccc3c(c2)OCO3)Oc2c(NS(=O)(=O)c3ccc(Cl)cc3)cccc2C1=O	/	3.0
Cc1ccc(C(=O)c2coc3ccc(O)c(CN(C)C)c23)cc1	-0.1	-2.7
C[C@H](CO)N1C[C@H](C)[C@@H](CN(C)S(=O)(=O)c2cccs2)Oc2c(NC(=O)Nc3cccc4ccccc34)cccc2C1=O	/	-0.8
Cc1ccc(C(=O)N2N=C3c4ccccc4S(=O)(=O)N3C2N2CCCCC2)cc1 (stereo unspecified)	/	-3.3
O=C(CN1C(=O)c2ccccc2C1=O)Nc1nccs1	0.8	2.9
N#CCSc1nc2c(sc3ccccc32)c(=O)n1CCCN1CCOCC1	1.1	-3.1
C[C@H]1CN([C@@H](C)CO)C(=O)c2cc(NC(=O)C3CC3)ccc2O[C@H]1CN(C)C(=O)Nc1ccc(F)cc1	1.1	2.9
C=CCn1c(=S)sc2c(=O)[nH]c(C)nc21	0.9	-9.3
CC(C)c1nc2sc3c(NCC4CCCO4)ncnc3c2c2c1CCCC2 (stereo unspecified)	/	-3.4

Reprinted from the part before: four entries; new compounds follow.
SMILES	A1 inhib	BJeLR viability
N#CCSc1nc2c(sc3ccccc32)c(=O)n1CCCN1CCOCC1	1.1	-3.1
C[C@H]1CN([C@@H](C)CO)C(=O)c2cc(NC(=O)C3CC3)ccc2O[C@H]1CN(C)C(=O)Nc1ccc(F)cc1	1.1	2.9
C=CCn1c(=S)sc2c(=O)[nH]c(C)nc21	0.9	-9.3
CC(C)c1nc2sc3c(NCC4CCCO4)ncnc3c2c2c1CCCC2 (stereo unspecified)	/	-3.4
O=C(Nc1ccc(N2CCN(Cc3ccccc3)CC2)cc1)Nc1ccc(C(F)(F)F)cc1	/	-1.0
C[C@H]1CN([C@@H](C)CO)C(=O)c2cccc(NC(=O)c3cnccn3)c2O[C@H]1CN(C)C(=O)Nc1ccc2c(c1)OCO2	/	1.1
COc1ccc(S(=O)(=O)N(C)C[C@H]2Oc3ccc(NC(=O)Nc4c(C)noc4C)cc3C(=O)N([C@H](C)CO)C[C@H]2C)cc1	-0.1	0.5
O=C(O)CCC(=O)Nc1ccc(Cc2ccncc2)cc1	-0.5	-3.4
C[C@H](CO)N1C[C@H](C)[C@H](CN(C)Cc2ccc(C(F)(F)F)cc2)Oc2c(NC(=O)Nc3cccc4ccccc34)cccc2C1=O	/	6.7
O=c1[nH]c(=O)n(Cc2ccco2)c2c1C(C(F)(F)F)(C(F)(F)F)N=C(CCC1CCCCC1)N2	/	0.3
C[C@H]1CN([C@@H](C)CO)C(=O)c2cc(NS(C)(=O)=O)ccc2O[C@@H]1CN(C)CC1CC1	-0.3	-3.0
C[C@H](CO)N1C[C@H](C)[C@@H](CN(C)CC2CC2)Oc2c(NC(=O)Nc3ccc(C(F)(F)F)cc3)cccc2C1=O	/	-1.1
CNC(=O)Cc1coc2ccc3ccccc3c12	0.2	-4.6
Cc1ccc(S(=O)(=O)N(C)C[C@H]2Oc3ccc(NC(=O)Nc4ccc(C(F)(F)F)cc4)cc3C(=O)N([C@@H](C)CO)C[C@@H]2C)cc1	0.7	0.4
C[C@H](CO)N1C[C@H](C)[C@@H](CN(C)Cc2ccc(Oc3ccccc3)cc2)Oc2ccc(NC(=O)Cn3cnnn3)cc2C1=O	0.1	-1.6
Cc1nn2c3c(cnc2c1-c1ccccc1)C(=O)CC(C)(C)C3	-1.8	10.2
Cc1onc(-c2ccccc2Cl)c1C(=O)NC(=S)NCc1ccco1	-0.4	-0.8
C[C@H](CO)N1C[C@H](C)[C@@H](CN(C)S(=O)(=O)c2ccc(Cl)cc2)Oc2ccc(NC(=O)CCCCCC(=O)Nc3ccccc3N)cc2C1=O	/	10.2
C=CC1C(=C)CCC2C1CCC1C(C)(C(=O)O)CCCC21C (stereo unspecified)	0.8	5.8
C=CCNC1=C2C[C@@H](C)C[C@H](OC)[C@H](O)[C@@H](C)/C=C(\C)[C@H](OC(N)=O)[C@@H](OC)C=C/C=C(/C)C(=O)NC(=CC1=O)C2=O	0.0	69.2*
COc1ccc(OCC(O)CNC(=O)c2c(-c3ccccc3)noc2C)cc1 (stereo unspecified)	/	3.1
O=C(NC1CC1)c1cc(-c2cccnc2)nc2ccccc12	0.4	3.8
C[C@@H]1CN([C@@H](C)CO)C(=O)c2cccc(NC(=O)Nc3ccc4c(c3)OCO4)c2O[C@@H]1CN(C)CC1CC1	/	5.9
N#Cc1cccc(CSc2nc3ccc(C(F)(F)F)cc3[nH]2)c1	0.4	5.7
Cc1ccc(S(=O)(=O)N(C)C[C@H]2Oc3ccc(NS(C)(=O)=O)cc3C(=O)N([C@@H](C)CO)C[C@H]2C)cc1	-0.4	5.5
C[C@@H]1CN([C@@H](C)CO)C(=O)c2cccc(NS(=O)(=O)c3ccccc3)c2O[C@@H]1CN(C)Cc1ccccc1	/	-0.5
N#Cc1c(C(F)(F)F)cc(-c2ccccc2)nc1SCC1COc2ccccc2O1 (stereo unspecified)	-0.7	6.2
C[C@H](CO)N1C[C@H](C)[C@@H](CN(C)Cc2ccc(Cl)c(Cl)c2)Oc2ccc(NC(=O)CCC(F)(F)F)cc2C1=O	-0.4	0.4

Screens (PubChem BioAssay)
